Ecoli rRNA inh: inhibitors of bacterial rRNA selective over humanized ribosomes | E. coli WT GFP vs humanized-ribosome RFP mutants, fluorescence, 24 h; active compounds read low; DMSO median 0, no signal -100 | GFP signal change (wild-type ribosome), % (no concentration beside the values) | 1.6% of 350,000 active;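 active means significant combined selectivity score with lowered wild-type GFP, culture density cut under 30%, mutant RFP and density less affected; inactive means any of these conditions unmet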; further: one replicate is shown; some compounds called inactive have numbers as strong as hits
Ecoli rRNA inh OD600: recorded beside Ecoli rRNA inh, whose call it bears; OD600 change, %; measured here: OD600 growth;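 optical density of the mix in the first replicate; 0 = DMSO median and -100 = no signal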
Ecoli rRNA inh RFP: further read-out of Ecoli rRNA inh, marked with its call; RFP signal change, %; measured here: RFP humanized mutant strains;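 first replicate; 0 = DMSO median and -100 = no signal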
The depositor's hits bear a star; & = joins results of further samples. An excerpt; count on the stated rates, not on these rows.

Ecoli rRNA inh OD600,Ecoli rRNA inh RFP,compound,Ecoli rRNA inh
5,-0.5,O=C(C[C@@H]1CC[C@H]2[C@@H](COC[C@H](O)CN2Cc2ccccc2)O1)N[C@H]1CCN(Cc2ccccc2)C1,0
14,0.6,C[C@H]1CN([C@@H](C)CO)C(=O)c2cc(-c3ccncc3)cnc2O[C@H]1CN(C)Cc1ccc(F)cc1,5
-5,-4.8,COc1ccc(Cn2cc(CN3CCOCC3)nn2)cc1,-2
5,2.3,C[C@@H]1CCCCO[C@@H](CN(C)C(=O)Nc2cccc3ccccc23)[C@H](C)CN([C@H](C)CO)C(=O)c2cc(NS(=O)(=O)c3ccc(F)cc3)ccc2O1,2
-20,9.8,C[C@H](CO)N1C[C@H](C)[C@H](CN(C)Cc2ccncc2)Oc2ccc(NC(=O)Nc3ccc(F)cc3)cc2CC1=O,-6
-7,0.5,C[C@@H]1CCCCO[C@@H](CN(C)Cc2ccc(C(F)(F)F)cc2)[C@H](C)CN([C@@H](C)CO)C(=O)c2cc(NC(=O)Cc3ccccc3)ccc2O1,0
-1,0.1,CCCN1C[C@H](C)[C@H](OC)CN(C)C(=O)c2cc(NS(=O)(=O)CC)ccc2OC[C@@H]1C,0
5,-0.8,CC=Cc1ccc2n(c1=O)C[C@H]1[C@H](CO)[C@@H](C(=O)NCCc3ccncc3)[C@@H]2N1Cc1ccncc1 (mixture of isomers),3
2,-0.8,O=C(NC1CCCC1)N[C@H]1C=C[C@@H](CC(=O)N2CCOCC2)O[C@@H]1CO,3
26,0.0,C[C@@H](NC(=O)[C@H]1[C@H](CO)[C@H]2Cn3c(cccc3=O)[C@H]2N1CC1CCCC1)c1ccccc1,3
-11,-2.0,C[C@@H]1CN([C@H](C)CO)C(=O)c2cccc(NC(=O)c3ccc(-c4nccs4)cc3)c2O[C@@H]1CN(C)C(=O)Nc1ccc2c(c1)OCO2,-7
13,-4.5,Cc1noc(C)c1NC(=O)N1C[C@@H](O)COC[C@H]2O[C@H](CC(=O)N[C@@H]3CCN(Cc4ccccc4)C3)CC[C@@H]21,5
20,11,CC1(C(=O)NS(=O)(=O)c2cccc(F)c2)CCN1C(=O)C/C=C/c1ccccc1 (stereo unspecified),-5
-3,0.6,CCCNC(=O)NC[C@@H]1[C@H](c2ccc(C3=CCCC3)cc2)[C@@H](CO)N1C(=O)CC,-9
-3,-1.1,Cc1noc(C)c1NC(=O)N(C)C[C@H]1Oc2ccc(NS(=O)(=O)c3c(C)noc3C)cc2C(=O)N([C@H](C)CO)C[C@H]1C,4
12,0.2,COCC#Cc1cnc2c(c1)C(=O)N([C@@H](C)CO)C[C@@H](C)[C@H](CN(C)Cc1ccc(F)cc1)O2,5
3,1.5,COc1ccc2c3c(n(C)c2c1)[C@H](CO)N(C(=O)C1CCOCC1)CC31CN(C(=O)C2CCOCC2)C1,3
2,-1.3,C[C@H](CO)N1C[C@H](C)[C@@H](CN(C)C)OCCCC[C@H](C)Oc2ccc(NS(C)(=O)=O)cc2C1=O,1
6,5.1,CCc1nc2ccc(C(=O)NCc3ccc(OC)cc3)cn2c1N(CCC(C)C)CCN(C)C,2
-3,-0.8,C[C@H](CO)N1C[C@H](C)[C@H](CN(C)S(C)(=O)=O)OCCCC[C@H](C)Oc2ccc(NS(=O)(=O)c3ccc(F)cc3)cc2C1=O,-4
3,2.1,O=C(C1CCOCC1)N1CC(=O)N2[C@H](CO)[C@H](c3ccc(Br)cc3)[C@H]2C1,1
10,2.9,COCCN1C(=O)c2ccccc2C1c1nnnn1Cc1ccccc1 (stereo unspecified),17
9,-6.5,Cc1ccc2nc3n(c(=O)c2c1)-c1ncccc1C(=O)NC3Cc1ccccc1 (stereo unspecified),3
-7,0.7,C[C@@H]1CN([C@@H](C)CO)C(=O)c2cccc(NS(=O)(=O)c3ccc(Cl)cc3)c2O[C@H]1CN(C)C(=O)Nc1ccc2c(c1)OCO2,-3
-10,-0.5,CN1c2ccc(-c3ccc(C#N)cc3)cc2[C@@H]2[C@@H](CCN2S(=O)(=O)c2ccc(F)cc2)[C@@H]1CO,-5
12,4.2,COc1ccc(-c2ccc3c(n2)CCCN3S(=O)(=O)c2ccc(C(F)(F)F)cc2)cc1,7
7,-5.5,C[C@H]1CN([C@@H](C)CO)C(=O)c2cccc(NC(=O)c3cnccn3)c2O[C@H]1CN(C)S(=O)(=O)c1cn(C)cn1,2
-7,1.2,Cc1noc(C)c1S(=O)(=O)N(C)C[C@@H]1Oc2ccc(NC(=O)Cc3cn(C)c4ccccc34)cc2CC(=O)N([C@H](C)CO)C[C@@H]1C,2
7,-2.0,C[C@@H]1CN([C@@H](C)CO)C(=O)c2cc(-c3ccncc3)cnc2O[C@@H]1CN(C)C(=O)Cc1ccccn1,6
4,1.3,Cc1ccc(S(=O)(=O)N(C)C[C@@H]2Oc3cc(C#CC4CCCC4)ccc3S(=O)(=O)N([C@@H](C)CO)C[C@H]2C)cc1,3
-75,-12,O=C(Nc1ccc(F)cc1)N1CCCCN2[C@H](CO)[C@@H](c3ccc(-c4cccc(F)c4)cc3)[C@H]2C1,-59
-28,3.6,N#Cc1ccc(-c2ccc3c(c2)[C@@H]2[C@@H](CCN2C(=O)C2CCC2)[C@H](CO)N3)cc1,-16
-8,-2.0,CNC[C@H]1Oc2c(NC(=O)c3nc4ccccc4s3)cccc2C(=O)N([C@H](C)CO)C[C@H]1C,-2
-1,1.4,C[C@@H]1CCCCO[C@@H](CN(C)C(=O)C2CCCCC2)[C@@H](C)CN([C@@H](C)CO)C(=O)c2cc(NS(=O)(=O)c3cccs3)ccc2O1,-1
-59,14,C[C@@H]1CN([C@@H](C)CO)S(=O)(=O)c2ccc(Br)cc2O[C@H]1CN(C)S(=O)(=O)c1ccccc1,-31
-3,-1.2,C[C@H]1CN([C@@H](C)CO)C(=O)c2cccc(NC(=O)Nc3ccc4c(c3)OCO4)c2O[C@H]1CN(C)CC1CCCCC1,2
-10,-2.2,COc1ccc(NC(=O)N(C)C[C@@H]2Oc3ccc(NC(=O)Cc4ccccc4)cc3C(=O)N([C@@H](C)CO)C[C@H]2C)cc1,-6
-11,3.1,COCC(=O)Nc1ccc2c(c1)C(=O)N(C)C[C@@H](OC)[C@H](C)CN(Cc1ccccc1F)[C@@H](C)CO2,-7
11,0.7,CNC[C@@H]1Oc2ccc(NS(=O)(=O)c3ccc(F)cc3)cc2CC(=O)N([C@H](C)CO)C[C@@H]1C,4
-1,7.0,CNC[C@@H]1Oc2cc(C#Cc3ccc(OC)cc3)ccc2S(=O)(=O)N([C@@H](C)CO)C[C@H]1C,1
-30,2.0,O=C(C[C@H]1C[C@@H]2c3cc(NC(=O)C4CCOCC4)ccc3O[C@@H]2[C@@H](CO)O1)NCc1ccc(Oc2ccccc2)cc1,-7
1,0.1,C[C@@H]1CN([C@H](C)CO)C(=O)c2cc(C#Cc3ccccc3F)cnc2O[C@@H]1CN(C)C(=O)Cc1ccncc1,-1
8&9,-1.4&-4.7,CNC[C@@H]1Oc2cc(Br)ccc2S(=O)(=O)N([C@@H](C)CO)C[C@H]1C,5&4
18,-4.2,CN1CCN(c2ncnc3c2ncn3[C@H]2CN(Cc3ccc4c(c3)OCO4)C[C@@H](CO)O2)CC1,8
5,-3.2,CC(C)CC#Cc1ccc([C@H]2[C@@H](CO)N3C(=O)CN(C(=O)CN4CCOCC4)C[C@H]23)cc1,3
15,0.8,Cc1nc2ccc(Cl)cc2n1C,3
0,-4.3,CN(C)C(=O)C[C@@H]1CC[C@H]2[C@@H](COC[C@@H](O)CN2CC2CCCC2)O1,-1
9,2.9,OC[C@H]1[C@@H](c2ccc(Br)cc2)[C@H]2CN(Cc3ccccn3)CCCCN21,3
-47,32,COc1cccc(-c2ccc3c(c2)[C@@H]2[C@@H](CCN2C(=O)c2cccc(F)c2)[C@@H](CO)N3)c1,-17
0,12,C[C@@H]1CCCCO[C@H](CN(C)Cc2ccc(C(F)(F)F)cc2)[C@H](C)CN([C@@H](C)CO)C(=O)c2cc(NS(=O)(=O)c3ccc(Cl)cc3)ccc2O1,0
3,-1.5,O=C(c1cccnc1)N1CC(=O)N2[C@@H](CO)[C@@H](c3ccc(/C=C/c4ccccc4)cc3)[C@@H]2C1,0
-11,-1.2,COc1ccc(-c2ccc([C@@H]3[C@H](C#N)N(C(=O)NC4CCCC4)[C@H]3CO)cc2)cc1,-5
7,-0.6,CCN1C(=O)[C@H]2[C@@H](c3ccc(OC)cc3)N[C@]3(CCCN(CCC(C)C)C3=O)[C@H]2C1=O,11
15,1.2,NC(=N\N=Cc1ccccc1)/C(N)=N/N=Cc1ccccc1,13
-5,-1.2,O=C(NC1CCC1)[C@H]1[C@H](CO)[C@H]2Cn3c(ccc(-c4cncnc4)c3=O)[C@@H]1N2CCc1ccccc1,-2
-10,1.2,C#CCNC(=O)C[C@H]1C[C@@]2(C(=O)OC)C(=C[C@H](C3CCCC3)O[C@@H]2C)N(Cc2ccccc2)C1=O,-4
12,-1.4,COc1cccc(-c2nc(-c3cccc(C)c3)nc3cc(Cl)ccc23)c1,11
2,0.4,COc1ccccc1NC(=O)N[C@H]1CC[C@@H](CCNS(=O)(=O)c2ccc(F)cc2)O[C@H]1CO,1
9,-1.2,CNC[C@H]1Oc2ccc(NC(=O)Nc3ccc(OC)cc3)cc2CC(=O)N([C@H](C)CO)C[C@H]1C,7
7,0.5,CCNC(=O)C[C@@H]1CC[C@@H]2[C@H](COc3ccc(NC(=O)C4CCCCC4)cc3C(=O)N2C)O1,5

Look-ups from above.
Under Ecoli rRNA inh, C[C@H]1CN([C@@H](C)CO)C(=O)c2cccc(NC(=O)Nc3ccc4c(c3)OCO4)c2O[C@H]1CN(C)CC1CCCCC1 shows 2
Under Ecoli rRNA inh, CN(C)C(=O)C[C@@H]1CC[C@H]2[C@@H](COC[C@@H](O)CN2CC2CCCC2)O1 shows -1
Under Ecoli rRNA inh, CC(C)CC#Cc1ccc([C@H]2[C@@H](CO)N3C(=O)CN(C(=O)CN4CCOCC4)C[C@H]23)cc1 shows 3

Only Ecoli rRNA inh OD600 (7 entries from above):
structure,Ecoli rRNA inh OD600
O=C(Nc1ccc(F)cc1)N1CCCCN2[C@H](CO)[C@@H](c3ccc(-c4cccc(F)c4)cc3)[C@H]2C1,-75
CNC[C@@H]1Oc2cc(C#Cc3ccc(OC)cc3)ccc2S(=O)(=O)N([C@@H](C)CO)C[C@H]1C,-1
CCNC(=O)C[C@@H]1CC[C@@H]2[C@H](COc3ccc(NC(=O)C4CCCCC4)cc3C(=O)N2C)O1,7
C[C@@H]1CN([C@H](C)CO)C(=O)c2cc(C#Cc3ccccc3F)cnc2O[C@@H]1CN(C)C(=O)Cc1ccncc1,1
NC(=N\N=Cc1ccccc1)/C(N)=N/N=Cc1ccccc1,15
C[C@H]1CN([C@@H](C)CO)C(=O)c2cccc(NC(=O)Nc3ccc4c(c3)OCO4)c2O[C@H]1CN(C)CC1CCCCC1,-3
COc1ccc(NC(=O)N(C)C[C@@H]2Oc3ccc(NC(=O)Cc4ccccc4)cc3C(=O)N([C@@H](C)CO)C[C@H]2C)cc1,-10

Next section
Ecoli rRNA inh OD600,Ecoli rRNA inh RFP,compound,Ecoli rRNA inh
14,-3.6,COCC(=O)Nc1ccc2c(c1)[C@@H]1C[C@H](CC(=O)NCc3ccncc3)O[C@@H](CO)[C@@H]1O2,4
-3,-0.3,N#Cc1ccc(-c2ccc([C@H]3[C@H](CO)N4C(=O)CN(C(=O)Cc5ccccc5)C[C@@H]34)cc2)cc1,-1
10,-2.7,CCOC(=O)C1=C(C(=O)OCC)C2N(Cc3ccc(C#N)cc3)c3ccccc3[C@@]23C[C@@H](C(=O)OC)N(S(=O)(=O)c2ccc(C#N)cc2)C3=N1 (stereo partly specified),14
-2,34,O=C(NC(c1ccc(-c2ccccc2)cc1)c1cnccn1)C1CCN(Cc2ccc(Oc3ccccc3)cc2)CC1 (stereo unspecified),33
6,-2.2,CN1C(=O)c2cc(NC(=O)c3cccc(Cl)c3)ccc2OC[C@H]2O[C@@H](CC(=O)NC3CCCCC3)CC[C@@H]21,3
8,-3.6,CN1CCN(C(=O)C[C@@H]2CC[C@H]3[C@@H](COC[C@@H](O)CN3CC3CCCC3)O2)CC1,-1
-8,-4.1,CC(C)CC#Cc1ccc([C@@H]2[C@@H](CO)N3C(=O)CN(C(=O)CN4CCOCC4)C[C@H]23)cc1,3
10,-2.7,FC(F)(F)c1ccccc1-c1ccc2nncn2c1,9
-5,0.0,CCCC#Cc1ccc([C@@H]2[C@@H](CO)N3C(=O)CN(C(=O)NCCC)C[C@@H]23)cc1,-1
-6,0.1,C[C@@H]1CN([C@H](C)CO)C(=O)Cc2cc(NC(=O)CCN3CCOCC3)ccc2O[C@@H]1CN(C)C(=O)Nc1ccccc1,7

Source: PubChem (Broad Institute)
